Source: PubChem (Johns Hopkins Ion Channel Center)
KCNQ2 block: KCNQ2 potassium channel inhibitors, primary screen, cell-based, CHO-K1, FluxOR thallium flux, B-score (AID 2156); 20 min; stronger effect = lower value; only compounds with negative scores are shown here; some inactives read as strong as hits; B-score at 10 µM; actives 1.1% (n = 310,000);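 active = fluorescence ratio B-score at most minus 3 library SDs, with starting brightness B-score within 2 library SDs, cut at about -5.5 in these data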
Target sequence (O88943 whole entry, looked up): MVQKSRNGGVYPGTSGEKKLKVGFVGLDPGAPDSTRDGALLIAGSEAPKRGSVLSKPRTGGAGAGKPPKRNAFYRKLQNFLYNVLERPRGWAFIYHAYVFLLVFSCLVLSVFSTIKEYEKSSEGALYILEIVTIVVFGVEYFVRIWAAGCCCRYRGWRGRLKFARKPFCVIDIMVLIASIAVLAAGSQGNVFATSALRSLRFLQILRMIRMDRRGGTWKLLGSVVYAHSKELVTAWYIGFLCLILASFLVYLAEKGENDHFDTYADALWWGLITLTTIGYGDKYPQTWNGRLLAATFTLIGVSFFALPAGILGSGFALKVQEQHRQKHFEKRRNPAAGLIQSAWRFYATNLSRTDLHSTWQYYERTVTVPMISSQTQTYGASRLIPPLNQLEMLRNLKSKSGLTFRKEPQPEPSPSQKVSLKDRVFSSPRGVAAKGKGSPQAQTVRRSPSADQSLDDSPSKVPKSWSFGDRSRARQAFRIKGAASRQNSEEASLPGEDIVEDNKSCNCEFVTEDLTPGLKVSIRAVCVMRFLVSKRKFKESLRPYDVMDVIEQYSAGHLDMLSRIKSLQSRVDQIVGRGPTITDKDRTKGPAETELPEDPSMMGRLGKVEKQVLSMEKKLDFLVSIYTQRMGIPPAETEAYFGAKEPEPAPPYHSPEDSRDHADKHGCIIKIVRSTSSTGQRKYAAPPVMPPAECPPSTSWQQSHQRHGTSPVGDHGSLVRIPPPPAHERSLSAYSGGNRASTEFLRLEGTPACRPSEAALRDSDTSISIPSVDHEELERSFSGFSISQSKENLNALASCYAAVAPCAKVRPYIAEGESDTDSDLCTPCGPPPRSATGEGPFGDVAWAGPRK
KCNQ2 block baseline: further read-out of KCNQ2 block, marked with its call; B-score; measured here: initial fluorescence intensity artifact check;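 brightness before thallium and not channel activity; 0 = typical well and far values either way flag optical interference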
* hit, by the source's call; i = inactive. The list is partial (hit frequency here may not be typical).

SMILES | KCNQ2 block | KCNQ2 block baseline
COc1ccc(CCn2c(O)c(C=NCc3ccc4c(c3)OCO4)c(=O)[nH]c2=O)cc1OC | i | 0.07
O=C(O)C1C2CCC(O2)C1C(=O)Nc1cccc(Br)c1 (stereo not given) | i | -1.7
COC(=O)C1=C(c2cc3ccccc3o2)C[C@@H]2CC[C@H]1N2C(=O)NCCO | i | 0.19
C=CCN1C(=O)/C(=C/c2cccs2)C(=O)NC1=S | i | -1.7
Cc1ccc(S(=O)(=O)Nc2cc(C(=O)N3CCC4(CC3)OCCO4)ccc2N2CCCCC2)cc1 | i | 0.51
Cc1ccc(C)c(OCC(=O)N2CCN(Cc3ccc4c(c3)OCO4)CC2)c1 | i | -1.7
CCc1nc(N2CCNCC2)c(C#N)c2c1CSC(C)(C)C2 | i | 1.5
O=[N+]([O-])c1cc2c(cc1CNCCc1ccc3c(c1)OCO3)OCO2 | i | -0.28
CCN(CC)c1ccc(CNCCc2ccccc2F)cc1 | i | -1.5
NCCc1ccccc1 | i | 0.26
COc1ccc(CNCCc2c(C)[nH]c3ccc(OC(F)(F)F)cc23)c(OC)c1 | i | 0.76
O=c1[nH]cc(COCC(F)(F)C(F)(F)C(F)(F)F)c(=O)[nH]1 | i | -1.1
Cc1ccc(S(=O)(=O)N2CCC(C(=O)N3CCC4(CC3)OCCO4)CC2)cc1 | i | 0.04
Cc1ccc(N)c(C(=O)c2ccc(Br)cc2)c1 | i | -2.8
Cc1ccc(OCCn2cccc2/C=C2/C(=O)NC(=O)N(Cc3ccco3)C2=O)cc1 | i | 0.01
O=C(C[N+]12CCC(CC1)C(CO)C2)c1ccc(Br)cc1 (stereo not given) | i | 0.21
CC1(C)OC(c2ccccc2)=C/C(=C/C=C2C(=O)NC(=S)NC2=O)O1 | i | 8.9
CN(C)C(=O)Oc1ccnc2cc(Cl)ccc12 | i | 0.01
O=C1C2CCCN2C(c2cccnc2)N1c1nccs1 (stereo not given) | i | 2.7
Cn1c(O)c(C(=O)c2ccccc2)c(=O)n(C)c1=O | i | 2
O=c1[nH]c(=S)n(C2CC2)c(O)c1C=NCC1CCCO1 (stereo not given) | i | -1
CCc1ccc(C(=O)C23CN4CN(CN(C4)C2)C3)cc1 | i | 1.7
Cc1cccc(C)c1NC(=O)CN(C)CC(=O)Nc1ccc(C#N)c(Cl)c1 | i | -0.94
O=c1[nH]c(=S)n(C2CC2)c(O)c1C=Nc1ccc2c(c1)OCO2 | i | 0.21

A draw from above in order of molar mass, lowest first:
SMILES | KCNQ2 block | KCNQ2 block baseline
Cn1c(O)c(C(=O)c2ccccc2)c(=O)n(C)c1=O | i | 2
CCc1ccc(C(=O)C23CN4CN(CN(C4)C2)C3)cc1 | i | 1.7
O=C1C2CCCN2C(c2cccnc2)N1c1nccs1 (stereo not given) | i | 2.7
Cc1ccc(N)c(C(=O)c2ccc(Br)cc2)c1 | i | -2.8
O=[N+]([O-])c1cc2c(cc1CNCCc1ccc3c(c1)OCO3)OCO2 | i | -0.28
Cc1cccc(C)c1NC(=O)CN(C)CC(=O)Nc1ccc(C#N)c(Cl)c1 | i | -0.94
COc1ccc(CNCCc2c(C)[nH]c3ccc(OC(F)(F)F)cc23)c(OC)c1 | i | 0.76

Continuation.
SMILES | KCNQ2 block | KCNQ2 block baseline
COc1ccc(/C=C/C2=CCN(C)CC2)cc1 | i | 1.8
CCOC(=O)C(O)(c1ccc(N(CC)C(=O)OC)cc1)C(F)(F)F (stereo not given) | i | -1.6
CN1CCN(c2ccc(/C=C3\C(=O)NC(=S)N(c4cccc(Br)c4)C3=O)o2)CC1 | i | 17
O=[N+]([O-])c1ccc(C2C3C(c4ccccc4)=NC4(CCCCC4)N32)cc1 (stereo not given) | i | 1.1
O=C(Nc1nccs1)c1c(O)c2c(n(Cc3ccco3)c1=O)CCCC2 | i | -2
CCOC(=O)c1ccccc1NC(=O)c1c(O)[nH]c(=O)[nH]c1=O | i | 0.02
Cc1cccc(NC(=O)N2C[C@H]3C[C@@H](C2)c2cccc(=O)n2C3)c1 | i | -0.59
Nc1c2c(nc3ccccc13)CCN(Cc1ccccc1)C2 | i | -0.13
O=C1CC(=O)N(c2cccc(C(F)(F)F)c2)C(=O)N1 | i | -0.37
Fc1ccc(Cn2nnnc2C(c2ccc(F)cc2)N2CC=C(c3ccc(F)cc3)CC2)cc1 (stereo not given) | i | 1.7
COc1ccc(/C=C/C(=O)c2c(O)n(CCC3=CCCCC3)c(=O)[nH]c2=O)cc1 | i | -0.2
CCNc1ccc(P(=S)(N(C)C)N(C)C)cc1 | i | -0.72
CCOC(=O)c1cc(C)n(CCc2cnc[nH]2)c1C | i | 1.2
COc1ccc(-c2nn(CCC#N)cc2C(=O)Nc2ccc(C(C)=O)cc2)cc1 | i | -0.8
FC(F)(F)c1ccc2c(c1)NP(=S)(N1CCOCC1)c1nccn1-2 (stereo not given) | i | 0.66
Cc1c(-c2cccc(Cl)c2)nc2ccccc2c1C(=O)N1CCC2(CC1)OCCO2 | i | 0.28
COc1cccc(N2C(=O)NC(=O)/C(=C/c3ccc4c5c(cccc35)CC4)C2=O)c1 | i | 0.94
CN1C(=O)N(C)C(=O)C(CCc2ccccn2)(CCc2ccccn2)C1=O | i | 0.42
CCCCCn1c(N)c(C(=O)NCCN2CCOCC2)c2nc3ccccc3nc21 | i | 1.4
CC(=O)c1ccc(NC2=NCCCS2)cc1 | i | -1.1
CCOc1cccc(OCC)c2c(C)[n+](CC3CCCO3)c(C)c1-2 (stereo not given) | i | -3
CN(C)C(=O)Oc1ccc2ccccc2c1Cl | i | -0.57
Cc1ccccc1-n1c(O)c(/C=N/NC(=O)c2ccccc2O)c(=O)[nH]c1=S | i | 1.1
COCCOC(=O)c1c(N)n(Cc2ccc(OC)cc2)c2nc3ccccc3nc12 | i | 1.1
CC1CN(c2ccc([N+](=O)[O-])c(N3CCCCC3)c2)CCN1 (stereo not given) | i | -1.4
COc1ccc(NC(=S)NC(NC(=O)CF)C(Cl)(Cl)Cl)c([N+](=O)[O-])c1 (stereo not given) | i | -1.2
CN1CCN(/N=C/c2c[nH]c3ccccc23)CC1 | i | 1.3
COc1ccc(N2C(=O)/C(=C/c3ccc(N(C)C)o3)C(=O)NC2=S)cc1 | i | 7.6
CCN1CC2([N+](=O)[O-])CC=C(Cl)C([N+](=O)[O-])(C1)C2 (stereo not given) | i | -1.1
O=C1NC(=S)NC(=O)C1=Cc1ccc(OCC(=O)N2CCCC2)cc1 | i | 0.33
CCc1sc(C(=O)N2CCC3(CC2)OCCO3)cc1Br | i | -1.3
CSc1ccc(CNC(C)C(O)c2ccccc2)cc1 (stereo not given) | i | -0.06
O=c1[nH]c(=S)n(C2CC2)c(O)c1C=NCCc1ccccc1 | i | 0.07
CC(=O)OCC[N+](C)(C)C | i | -0.29
CCN(CC)CC(=O)Nc1ccc(Cl)cc1C(=O)c1ccccc1 | i | -1.2
CCOc1cc(C2NCc3ccccc3-n3cccc32)ccc1O (stereo not given) | i | 0.33
CC(C)OCCCNC(=O)c1c(N)n(CC2CCCO2)c2nc3ccccc3nc12 (stereo not given) | i | -0.58
O=c1[nH]c(=O)n(-c2cccc3ccccc23)c(O)c1/C=N/N1CCCCCC1 | i | -1.4
C=CCN1C(=O)NC(=O)C(Cc2ccc(OC)c(OC)c2)C1=O (stereo not given) | i | -0.65
CC(C)OC(=O)c1c(N)n(Cc2ccco2)c2nc3ccccc3nc12 | i | 1.4
COc1ccc(N2CCN(Cc3nc4ccccc4[nH]3)CC2)cc1 | i | -0.06
N/C(=N\[N+](=O)[O-])N1CCN(C(=O)OC2CCCC2)CC1 | i | -0.61
Cn1cc(C(=O)N2CCOCC2)c2ccccc21 | i | -0.19
C=C(C)CN1CC[C@]23c4c5ccc(O)c4O[C@H]2c2[nH]c4ccccc4c2C[C@@]3(O)C1C5 | i | -0.99
Cc1nc2cc([N+](=O)[O-])ccc2c(=O)n1-c1ccc(Br)cc1 | i | -0.46
Cc1cc(C)n2nc(SCC(=O)N3CCC4(CC3)OCCO4)nc2n1 | i | -2.2
CC(C)Nc1nc(Cl)nc(NC(C)C)n1 | i | 0.6
CC/C(=N\NC(=O)c1ccccc1Cl)c1c(O)n(C2CCCCC2)c(=O)[nH]c1=O | i | 0.25

Another view of four compounds above:
> C=C(C)CN1CC[C@]23c4c5ccc(O)c4O[C@H]2c2[nH]c4ccccc4c2C[C@@]3(O)C1C5
  KCNQ2 block: i
  KCNQ2 block baseline: -0.99

> Cc1nc2cc([N+](=O)[O-])ccc2c(=O)n1-c1ccc(Br)cc1
  KCNQ2 block: i
  KCNQ2 block baseline: -0.46

> Cc1cc(C)n2nc(SCC(=O)N3CCC4(CC3)OCCO4)nc2n1
  KCNQ2 block: i
  KCNQ2 block baseline: -2.2

> CC(C)Nc1nc(Cl)nc(NC(C)C)n1
  KCNQ2 block: i
  KCNQ2 block baseline: 0.6

Additional entries:
SMILES | KCNQ2 block | KCNQ2 block baseline
Cc1ccc(-c2cc(-c3ccccc3)cc(-c3ccccc3)[n+]2-c2ccccc2C(=O)O)cc1 | i | -0.52
CN1C(=O)N(C)C(=O)C2(Cc3c(ccc4ccccc34)N(C)C2)C1=O | i | -1.8
CCCCn1c(=O)c(C(=O)NCc2ccc(Cl)cc2)c(O)c2ccccc21 | i | 0.41
COCCOC(=O)c1c(C)n(C)c2ccc(OC(=O)N(C)C)cc12 | i | 0.25
O=C(c1cccn2c(=O)c3ccccc3nc12)N1CCC2(CC1)OCCO2 | i | -1.9
O=[N+]([O-])c1cccc(NP(=O)(Oc2ccccc2)Oc2ccccc2)c1 | i | -0.14
CC(=O)OC1N=C(c2ccccc2)c2cc(Br)ccc2NC1=O (stereo not given) | i | -1.5
Cc1nn(Cc2ccccc2)c(C)c1C(=O)OCC(=O)NC1CCS(=O)(=O)C1 (stereo not given) | i | 1.2
COC(=O)C1=C(c2cccc(OC)c2OC)C[C@@H]2CC[C@H]1N2C(=O)NCc1ccccc1 | i | -0.04
CC(C)CCC1(CCc2ccncc2)C(=O)NC(=O)NC1=O | i | 0.11
Brc1ccccc1 | i | 1.5
CN(C)c1ccc(P(=S)(N(C)C)N(C)C)cc1 | i | 0.01
Cc1cccc(OP(N)(=O)Oc2cccc(C)c2)c1 | i | 0.22
CCC/C=C(\CCC)C(NP(=O)(c1ccccc1)c1ccccc1)c1ccccc1 (stereo not given) | i | -0.44
O=C1C2CCCN2C(c2ccc(Cl)c(Cl)c2)N1c1ccccn1 (stereo not given) | i | -1.2
Cc1ccc(CS(=O)(=O)CCC(=O)N2CCC3(CC2)OCCO3)cc1 | i | 2.3
COc1ccc(N=Cc2c(O)n(Cc3ccccc3)c(=S)[nH]c2=O)c(OC)c1 | i | 2.4
Cc1cc(C(=O)O)c(C)n1C1CC1 | i | -1.3
Cc1cccc(NC(=O)OC2CN3CCC2CC3)c1 (stereo not given) | i | -1.6
O=C(Cc1ccccc1)N1CCN(Cc2ccccc2Cl)CC1 | i | -0.63
COc1ccc2c(c1O)-c1cccc3c1[C@@H](C2)N(C)CC3 | i | 3.7
CCOc1ccc(C2C(C#N)=C(N)Oc3c2c(=O)oc2ccccc32)cc1 (stereo not given) | i | -0.3
CN1CCN(CC#CCOc2ccc(Cl)cc2)CC1 | i | 0.38
CCN(CC)CCCN=Cc1c(O)n(CCc2ccc(F)cc2)c(=O)[nH]c1=O | i | -0.48
Cn1c(O)c(/C=N/N2CCOCC2)c(=O)n(-c2ccccc2)c1=S | i | 1.2
Cc1ccc(N2C(=O)NC(=O)C3(Cc4ccccc4N4CCN(c5ccccc5)CC43)C2=O)cc1 (stereo not given) | -7.1* | 0.92*
Clc1ccc(N2CCNCC2)nn1 | i | 1.7
O=c1[nH]c(=O)n(-c2ccccc2F)c(O)c1C=NCCC1=CCCCC1 | i | -0.34
COc1cc2c(cc1O)CC1c3c(cc(O)c(OC)c3-2)CCN1C (stereo not given) | i | -1.2
Cc1cc(=O)oc2c(C)c(OCC(=O)N3CCN(Cc4ccccc4)CC3)ccc12 | i | 1.6
CN1CCN(/N=C/c2c(O)n(CCC3=CCCCC3)c(=S)[nH]c2=O)CC1 | i | 0.12
O=C(Nc1ccc(F)cc1)c1c(O)c2c(n(Cc3ccccc3)c1=O)CCCC2 | i | -0.34
O=c1[nH]c(O)c(C=NC2CCCCC2)c(=O)[nH]1 | i | -0.63
O=c1[nH]c(=O)n(CCC2=CCCCC2)c(O)c1C=NCCCn1ccnc1 | i | 1
CC1=NCCc2c1[nH]c1ccccc21 | i | -0.01
COc1ccc(-n2c(O)c(C(C)=Nc3ccc4c(c3)CCC4)c(=O)[nH]c2=O)cc1 | i | 0.76
CC(C)Oc1ccc(CC2(CCc3ccncc3)C(=O)NC(=O)NC2=O)cc1 | i | 0.55
COc1cccc(C(=O)C2CN(C)CC2c2ccc(Cl)cc2)c1 (stereo not given) | i | -0.46
CC(NCc1ccccc1Cl)C(O)c1ccccc1 (stereo not given) | i | 1.5
CN[C@H](C)[C@H](O)c1ccccc1 | i | 0.32
CCCCN1C(=O)/C(=C\c2ccco2)C(=O)N(CCc2ccccc2)C1=O | i | 0.8
O=C1NC(=O)C(=Cc2cccc(OCCOc3ccccc3)c2)C(=O)N1 | i | -1
CC1CC2(O)c3no[n+]([O-])c3CCC2N1O (stereo not given) | i | 0.52
CCN1CCN(S(=O)(=O)c2ccc(Cl)c(C(=O)Nc3ccc(C(=O)N(CC)CC)cc3)c2)CC1 | i | 0.2
CCN(CC)c1ccc(C=C2C(=O)NC(=S)NC2=O)cc1 | i | -1.1
Cc1cc(C=C(C#N)C#N)ccc1N1CCCC1 | i | 1.1
CC1Oc2cc3c(-c4c(O)cc(O)c5c(O)c6c(cc45)OC(C)C(C)C6=O)c(O)cc(O)c3c(O)c2C(=O)C1C (stereo not given) | i | 1.6
O=[N+]([O-])c1ccc(N2CCCC2)c2ccncc12 | i | -0.03
